Mtb growth – M. tuberculosis H37Rv growth inhibitors, H37Rv strain (AID 1626). M. tuberculosis H37Rv growth inhibition; higher % means a stronger effect. one-dose inhibition, % at 10 µM; IC50 in µM for titrated hits. actives 0.95% (n = 220,000);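 active means confirmed in a dose series; inconclusive means inhibition above 80% but not taken into the dose series; inactive means below 80% or under 30% at every dose of the series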;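 further: bacteria incubated seven days before Alamar blue readout; 0% = bacteria only wells and 100% = bacteria with antibiotic wells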
RecA intein inh – inhibitors of M. tuberculosis RecA intein splicing | cell-free RecA intein splicing, fluorescence | actives 0.75% (n = 290,000) | AID 2221 | inhibition, %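 (about 9 µM by stock and volumes)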; in the data active means inhibition above about 30%; inconclusive means no clear call, values can overlap the other calls;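 further: 0% = vehicle wells and 100% = reference inhibitor control wells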
Target sequence (P9WHJ3 whole entry, looked up): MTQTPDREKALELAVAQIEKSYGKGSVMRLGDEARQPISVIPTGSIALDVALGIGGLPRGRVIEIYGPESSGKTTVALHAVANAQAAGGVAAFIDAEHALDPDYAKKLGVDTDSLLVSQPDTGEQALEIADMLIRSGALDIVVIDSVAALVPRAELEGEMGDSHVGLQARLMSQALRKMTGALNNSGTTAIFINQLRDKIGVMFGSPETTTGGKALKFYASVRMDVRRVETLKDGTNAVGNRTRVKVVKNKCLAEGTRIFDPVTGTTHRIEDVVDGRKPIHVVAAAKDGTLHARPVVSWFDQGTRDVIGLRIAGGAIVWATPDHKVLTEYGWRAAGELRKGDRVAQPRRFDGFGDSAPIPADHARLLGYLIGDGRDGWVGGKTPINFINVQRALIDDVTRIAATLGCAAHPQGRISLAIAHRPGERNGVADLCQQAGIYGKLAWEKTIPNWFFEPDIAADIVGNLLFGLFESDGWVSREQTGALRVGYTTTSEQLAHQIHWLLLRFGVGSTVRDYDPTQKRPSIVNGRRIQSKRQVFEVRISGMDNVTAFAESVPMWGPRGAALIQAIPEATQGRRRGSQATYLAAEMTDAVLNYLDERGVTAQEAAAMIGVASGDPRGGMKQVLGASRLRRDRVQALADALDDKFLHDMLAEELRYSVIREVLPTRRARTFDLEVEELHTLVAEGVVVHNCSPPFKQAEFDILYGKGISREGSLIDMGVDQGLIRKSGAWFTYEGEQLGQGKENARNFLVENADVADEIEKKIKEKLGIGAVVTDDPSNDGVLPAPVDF
YopH inh – inhibitors of Yersinia enterocolitica YopH tyrosine phosphatase; fluorescence Ex485/Em525; inhibition, %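 (about 10 µM by stock and volumes)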; actives 0.16% (n = 140,000);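 active means inhibition of 50% or more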;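 further: controls were vehicle for no effect and minimum signal wells for full effect; inactives centre near -20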
Arbovirus anti – antivirals against arbovirus infection. arbovirus infection cell-based antiviral screen. inhibition, % at 10 µM. actives 0.37% (n = 200,000);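 active means inhibition from about 30%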;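 further: bluetongue infection of BSR cells; cell survival read as ATP light after 72 h; 0% = infected wells without compound and 100% = uninfected wells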
Mtb bLac sens – beta-lactam sensitization of Mtb H37Rv; inhibition, % at 25 µM; M. tuberculosis H37Rv growth with meropenem, percent inhibition; hits of this screen are not shown here; actives 0.27% (n = 330,000);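 active means about 74% or more and at least 40 points above the plate without the antibiotic, then above 30% in a dose series; inconclusive means first-round hits that could not be retested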;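 further: growth measured after seven days incubation then overnight dye step; 0% = bacteria only wells and 100% = bacteria with antibiotic; twin plates without the antibiotic show which effects depend on it; some results filed as inactive read as strong as hits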
Arbovirus anti repeat – second read-out of Arbovirus anti, no call of its own (marks repeat the call); inhibition, %; measured here: 10K subset replicate screen; many hits read low in the repeat;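 first of two repeat runs on a subset; 0% = infected and 100% = uninfected wells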
* = called active by the depositor. A portion of the library; the hit share may differ from the screen's.

Results for COC(=O)c1ccc(NC(=O)Nc2ccc(F)c(Cl)c2)cc1 ?
Mtb growth: 0.8%; RecA intein inh: 1.8; YopH inh: -14.9; Arbovirus anti: 8.8; Mtb bLac sens: -2.8

How did CCN1C(=O)CC(N2CCC(C(=O)N3CCOCC3)CC2)C1=O (stereo not drawn) do in these assays?
Mtb growth: 3.2%; RecA intein inh: -1.2; YopH inh: 29.8; Arbovirus anti: -5.8; Mtb bLac sens: 5.9

What do the screens show for `CCCSC1=C(C#N)C(c2cccnc2)C(C(=O)OCC)=C(c2ccccc2)N1` (stereo not drawn)?
Mtb growth: -1.1%; RecA intein inh: 1.4; YopH inh: -50.8; Arbovirus anti: -10.9; Mtb bLac sens: -0.1

How did C=CCn1c(O)c(/C=N/N2CCCCC2)c(=O)[nH]c1=O do in these assays?
Mtb growth: 5.7%; RecA intein inh: -2.2; Mtb bLac sens: 0.9

Results for CCCCN(CC)CCCNC(=O)c1csc2c1CCCCC2 ?
Mtb growth: -0.2%; RecA intein inh: 1.3; Arbovirus anti: -7.5; Mtb bLac sens: 0.0

What do the screens show for `COc1cccc(C(=O)Nc2c3c(nc4c2CCC4)CCCC3)c1`?
Mtb growth: -7.5%; RecA intein inh: -1.9; YopH inh: -37.3; Arbovirus anti: 0.1; Mtb bLac sens: -13.3

What do the screens show for `O=C(/C=C/c1ccccc1Cl)c1ccc(O)cc1`?
Mtb growth: 36.8%; RecA intein inh: 4.5; Mtb bLac sens: 88.7

How did CCOc1[nH]n(-c2ccccc2)c(=O)c1C=NCC(=O)OC do in these assays?
Mtb growth: -1.1%; RecA intein inh: -0.1; Arbovirus anti: 9.9; Mtb bLac sens: 2.6

How did CCCS(=O)(=O)c1nc(S(=O)(=O)c2ccc(C)cc2)c(N2CCC3(CC2)OCCO3)s1 do in these assays?
RecA intein inh: -9.6; Mtb bLac sens: 5.4

How did O=C(c1ccc(C(F)(F)F)cc1)C1CCCN(Cc2cccn2-c2ncccn2)C1 (stereo not drawn) do in these assays?
Mtb growth: -5.9%; RecA intein inh: 3.3; Arbovirus anti: -17.0; Mtb bLac sens: -4.3

What do the screens show for `O=C(CCCOc1ccc(Cl)cc1Cl)N/N=C/c1ccc(Cl)cc1`?
Mtb growth: 32.0%; RecA intein inh: 2.1; YopH inh: -12.3; Arbovirus anti: 17.9; Mtb bLac sens: -7.3

Results for CC1NC(=O)NC1CCCCC(=O)O (stereo not drawn) ?
Mtb growth: 13.0%; RecA intein inh: 1.0; YopH inh: -27.9; Arbovirus anti: 4.8; Mtb bLac sens: 0.1; Arbovirus anti repeat: 0.7

What do the screens show for `COc1ccc(N2CC(C(=O)Nc3ccc(S(=O)(=O)N4CCOCC4)cc3)CC2=O)cc1` (stereo not drawn)?
Mtb growth: 2.2%; RecA intein inh: -1.0; Arbovirus anti: -0.2; Mtb bLac sens: -5.7

Results for COC(=O)N/N=C(\C)c1ccccc1Br ?
Mtb growth: -8.2%; RecA intein inh: -2.1; YopH inh: -29.8; Arbovirus anti: 2.6; Mtb bLac sens: -3.6

What do the screens show for `O=C(COC(=O)COc1ccc2ccccc2c1)NC1CCCc2ccccc21` (stereo not drawn)?
Mtb growth: 5.9%; RecA intein inh: 2.1; YopH inh: -5.7; Arbovirus anti: -8.9; Mtb bLac sens: 15.4

How did CC1CCC(C(=O)NC(C(=O)N2CCN(c3ccccn3)CC2)C(C)C)CC1 (stereo not drawn) do in these assays?
RecA intein inh: -0.3; YopH inh: -39.9; Arbovirus anti: 2.3; Mtb bLac sens: -0.1

What do the screens show for `C=CCN(CC#CCOc1ccccc1OC)CC=C`?
Mtb growth: -27.3%; RecA intein inh: -1.8; Arbovirus anti: -4.5; Mtb bLac sens: -7.0

How did O=C(Nc1cccc(Cl)c1)Nc1ccc2c(c1)C(=O)OC2 do in these assays?
Mtb growth: 2.7%; RecA intein inh: 1.4; YopH inh: -13.5; Arbovirus anti: 10.8; Mtb bLac sens: -1.2

What do the screens show for `O=C(Cc1nn[nH]n1)NCc1ccccc1Cl`?
Mtb growth: -3.8%; RecA intein inh: 2.6; YopH inh: -13.5; Arbovirus anti: -0.5; Mtb bLac sens: 3.9

How did CCOC(=O)c1oc2ccc(Br)cc2c1COC(=O)C1=COCCO1 do in these assays?
RecA intein inh: 1.1; Mtb bLac sens: 20.8

Results for CCOc1ccccc1NC(=O)c1cnccn1 ?
RecA intein inh: -0.3; Mtb bLac sens: -1.7

Results for CCOc1cnc(-c2ccccc2F)o1 ?
Mtb growth: 6.2%; RecA intein inh: -1.2; Arbovirus anti: -1.4; Mtb bLac sens: -1.2

Results for CCc1cccc(NS(=O)(=O)c2ccc3c(c2)NC(=O)CO3)c1 ?
RecA intein inh: -0.8; Mtb bLac sens: -0.1

How did O=C(COC(=O)C(Cc1ccccc1)NC(=O)c1ccco1)NC1CC1 (stereo not drawn) do in these assays?
Mtb growth: -8.5%; RecA intein inh: 0.9; YopH inh: -15.4; Arbovirus anti: 0.3; Mtb bLac sens: -2.4

Results for CCOc1ccccc1NC(=O)C(CC)Sc1nc2ccsc2c(=O)n1CCC(=O)O (stereo not drawn) ?
RecA intein inh: -7.1; Mtb bLac sens: 24.4

Results for CNC(=O)Cn1nc(-c2ccc(C)c(S(=O)(=O)N(C)C)c2)c2ccccc2c1=O ?
Mtb growth: -1.0%; RecA intein inh: -2.4; YopH inh: -17.9; Arbovirus anti: 3.7; Mtb bLac sens: -5.9

How did COc1ccc2cc(C(N)=O)/c(=N/NC(=O)c3ccco3)oc2c1 do in these assays?
Mtb growth: 4.8%; RecA intein inh: -3.6; YopH inh: -30.0; Arbovirus anti: -9.2; Mtb bLac sens: 70.5

How did Cc1ccc(CNC(=O)C(C(=O)NCc2ccc(C)o2)c2ncc(C(F)(F)F)cc2Cl)o1 do in these assays?
Mtb growth: 5.8%; RecA intein inh: -1.2; Arbovirus anti: -1.8; Mtb bLac sens: 1.0

Results for COc1cc(OC)c(/C=N/NC(=O)c2ccc([N+](=O)[O-])cc2)cc1Br ?
Mtb growth: 2.8%; RecA intein inh: -3.1; YopH inh: -27.9; Arbovirus anti: 8.9; Mtb bLac sens: 67.2

What do the screens show for `Cc1c(C(=O)O)cccc1-c1ccc(/C=N/n2cnnc2)o1`?
RecA intein inh: 0.5; Mtb bLac sens: 1.4

What do the screens show for `O=C(COC(=O)CC(NC(=O)c1ccccc1Cl)c1ccccc1)Nc1cccc(F)c1` (stereo not drawn)?
Mtb growth: 2.0%; RecA intein inh: -0.4; YopH inh: -10.9; Arbovirus anti: -0.5; Mtb bLac sens: 1.1

Results for COc1ccc(C(=O)NC(CC(=O)O)c2cc([N+](=O)[O-])ccc2Cl)cc1 (stereo not drawn) ?
Mtb growth: 1.8%; RecA intein inh: -2.0; Arbovirus anti: 3.9; Mtb bLac sens: -6.8

What do the screens show for `COCC(=O)Nc1ccc(S(=O)(=O)NCC2CCCO2)cc1` (stereo not drawn)?
RecA intein inh: -1.1; Mtb bLac sens: 2.1

How did COc1ccc(NC(=O)CC2C(=O)N(c3cccc(OC)c3)C(=O)N2Cc2ccco2)cc1 (stereo not drawn) do in these assays?
Mtb growth: 4.8%; RecA intein inh: -0.6; Arbovirus anti: 1.7; Mtb bLac sens: -1.5

What do the screens show for `O=C(NCc1ccncc1)c1ccc(Cl)c(S(=O)(=O)N2CCOCC2)c1`?
Mtb growth: -9.4%; RecA intein inh: 1.5; YopH inh: -48.0; Arbovirus anti: 11.8; Mtb bLac sens: -1.9

How did O=C(c1ccco1)N1CCN(C(=S)NC2CC3CCC2C3)CC1 (stereo not drawn) do in these assays?
Mtb growth: 0.4%; RecA intein inh: -0.8; Arbovirus anti: 0.1; Mtb bLac sens: -8.1

How did Cc1ccc(S(=O)(=O)N(Cc2n[nH]c(=S)n2-c2ccccc2)c2cccc(Cl)c2)cc1 do in these assays?
Mtb growth: 4.5%; RecA intein inh: 6.1; Arbovirus anti: -10.0; Mtb bLac sens: -3.0

Results for Cc1ccc(-n2nnnc2SCC(=O)c2ccc3c(c2)NC(=O)CO3)c(C)c1 ?
Mtb growth: -1.9%; RecA intein inh: -4.4; YopH inh: 3.1; Arbovirus anti: -8.9; Mtb bLac sens: -5.3

Results for Nc1nc(C2C(=O)CCCC2=O)cs1 ?
Mtb growth: 1.0%; RecA intein inh: -3.5; YopH inh: 19.0; Arbovirus anti: 13.0; Mtb bLac sens: inconclusive

What do the screens show for `O=c1c2[nH]c3ccc(Cl)cc3c2ncn1Cc1ccccn1`?
Mtb growth: -7.0%; RecA intein inh: -0.3; YopH inh: -11.8; Arbovirus anti: 2.8

Results for O=C(Nc1nc2ccccc2n1CCN1CCOCC1)c1cn(-c2ccccc2)nc1-c1ccccc1 ?
RecA intein inh: 18.8; YopH inh: -14.7; Arbovirus anti: -37.9; Mtb bLac sens: 0.8

What do the screens show for `C/C(=N\NC(=O)C1CCCC1)c1ccc(Cl)cc1Cl`?
RecA intein inh: -0.2; Mtb bLac sens: 2.4

What do the screens show for `CC(=O)c1ccc(-c2nc3ccccc3n2C)o1`?
Mtb growth: -1.9%; RecA intein inh: -27.4; YopH inh: -19.5; Arbovirus anti: 2.5; Mtb bLac sens: -23.7

What do the screens show for `O=c1[nH]c(=O)n(-c2cccc(Cl)c2)c(O)c1C=NCCCN1CCOCC1`?
Mtb growth: -0.1%; RecA intein inh: -1.9; YopH inh: -26.4; Arbovirus anti: 0.2; Mtb bLac sens: 0.9

What do the screens show for `O=C(Nc1nc2cc3c(cc2s1)OCCO3)c1ccc([N+](=O)[O-])o1`?
RecA intein inh: 1.1; Mtb bLac sens: inconclusive

Results for Cc1ccc(OCC(=O)N2CCc3ccccc3C2)c(Br)c1 ?
RecA intein inh: -0.3; Mtb bLac sens: 3.9

What do the screens show for `Cc1ccc2nc(N3CC(C)OC(C)C3)nc(-c3ccccc3)c2c1` (stereo not drawn)?
RecA intein inh: -10.3; Mtb bLac sens: 1.9

What do the screens show for `COc1ccc(Cl)cc1NC(=O)C/C(C)=N/NC(=O)c1ccccc1Cl`?
RecA intein inh: -0.6; Mtb bLac sens: 0.0

How did COCCn1c(-c2ccccc2)nc2oc3ccccc3c(=O)c2c1=O do in these assays?
Mtb growth: -6.8%; RecA intein inh: 1.1; YopH inh: -32.1; Arbovirus anti: 6.6; Mtb bLac sens: 1.0

How did O=C(N1CCN(Cc2ccc3c(c2)OCO3)CC1)C(Cl)(Cl)Cl do in these assays?
RecA intein inh: -1.4; Mtb bLac sens: -2.1

How did FC(F)(F)c1cc(C(F)(F)F)c2ccc(N3CCOCC3)nc2n1 do in these assays?
RecA intein inh: -1.6; Mtb bLac sens: 0.5

How did Cc1cccc(C)c1NC(=O)CN(C)CC(=O)Nc1ccccc1Oc1ccccc1 do in these assays?
Mtb growth: 4.9%; RecA intein inh: 4.9; Arbovirus anti: 20.1; Mtb bLac sens: -4.1

How did Cc1ccc(S(=O)(=O)N2CCCC2C(=O)NCc2ccco2)cc1 (stereo not drawn) do in these assays?
Mtb growth: 4.9%; RecA intein inh: 1.5; YopH inh: 1.7; Arbovirus anti: -0.9; Mtb bLac sens: -1.6

Results for c1ccc(-c2nn3c(-c4ccco4)nnc3s2)nc1 ?
Mtb growth: -6.1%; RecA intein inh: -1.7; YopH inh: -33.1; Arbovirus anti: -4.0; Mtb bLac sens: 3.6

Results for Clc1cccc(Cl)c1CO/N=C/c1cccs1 ?
Mtb growth: 8.3%; RecA intein inh: 0.3; Mtb bLac sens: -8.6

Results for COc1cc(SC)ccc1C(=O)Nc1ccccn1 ?
Mtb growth: 1.0%; RecA intein inh: 1.2; Mtb bLac sens: -6.6

Results for CC1(C)CCC(=O)N(c2ccccc2)C1=O ?
Mtb growth: 1.1%; RecA intein inh: -2.8; YopH inh: -8.8; Arbovirus anti: -5.4; Mtb bLac sens: -6.3

Results for O=C(N/N=C/C=C/c1ccccc1)c1cccc(Br)c1 ?
Mtb growth: inconclusive; RecA intein inh: 1.7; YopH inh: -4.2; Arbovirus anti: -16.2; Mtb bLac sens: 98.9

What do the screens show for `CC(C)(C)NC(=O)CN(Cc1ccccc1)S(=O)(=O)c1ccccc1`?
RecA intein inh: -3.4; Mtb bLac sens: 0.1

Results for COC(=O)CN(C(=O)CSc1nnc(-c2cccc(OC)c2)o1)c1ccc(OC)cc1 ?
Mtb growth: -0.1%; RecA intein inh: 1.3; YopH inh: -20.0; Arbovirus anti: 2.6; Mtb bLac sens: -3.5
